# Assay outcomes as filed in PubChem.
# Tau FP inhib: qHTS for Inhibitors of Tau Fibril Formation, Fluorescence Polarization; Microtubule-associated protein tau (Homo sapiens), P10636; Potency, µM (series often up to 57.7 µM), for inactives: at the highest dose activity, negative = inhibition, most hits filed as inhibitors; AID 1468, 2008; 0.39% of 280,000 active; K18 P301L tau heparin fibrillization, Alexa594 FP, 6 h; further: on the % scale 0 is the no-effect control and ±100 the full control effect; nearly all actives have a fitted effect of over 55% in size
# Target sequence (P10636 561-689 P618L limits assumed): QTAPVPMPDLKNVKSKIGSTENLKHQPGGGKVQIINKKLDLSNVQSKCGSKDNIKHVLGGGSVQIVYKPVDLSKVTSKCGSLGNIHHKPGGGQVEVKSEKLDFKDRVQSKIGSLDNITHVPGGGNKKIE
#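 Human tau K18 […] P301L fragment, 15 uM unlabeled plus 0.24 uM Alexa 594-labeled tau (final), with compound and 20 uM heparin in 100 mM sodium acetate pH 7; 6 hr at 37 C, then Alexa 594 FP read.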
# ALDH1A1 block: qHTS Assay for Inhibitors of Aldehyde Dehydrogenase 1 (ALDH1A1) | Purified ALDH1A1, NADH fluorescence, propionaldehyde substrate | Potency, µM (highest dose often 75.3 µM), inactives show top-dose activity, negative = inhibition, actives largely listed as inhibitors | 7.3% of 220,000 active; active means well fitted inhibition curve with a large enough effect, not every such curve was filed as active; inconclusive means small, poorly fitted or top-dose-only effect, or another doubt; inactive means no such curve, though single readings can be large or run the other way;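 further: plate controls were no enzyme wells and a reference inhibitor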
# Target sequence (P00352 whole entry, looked up): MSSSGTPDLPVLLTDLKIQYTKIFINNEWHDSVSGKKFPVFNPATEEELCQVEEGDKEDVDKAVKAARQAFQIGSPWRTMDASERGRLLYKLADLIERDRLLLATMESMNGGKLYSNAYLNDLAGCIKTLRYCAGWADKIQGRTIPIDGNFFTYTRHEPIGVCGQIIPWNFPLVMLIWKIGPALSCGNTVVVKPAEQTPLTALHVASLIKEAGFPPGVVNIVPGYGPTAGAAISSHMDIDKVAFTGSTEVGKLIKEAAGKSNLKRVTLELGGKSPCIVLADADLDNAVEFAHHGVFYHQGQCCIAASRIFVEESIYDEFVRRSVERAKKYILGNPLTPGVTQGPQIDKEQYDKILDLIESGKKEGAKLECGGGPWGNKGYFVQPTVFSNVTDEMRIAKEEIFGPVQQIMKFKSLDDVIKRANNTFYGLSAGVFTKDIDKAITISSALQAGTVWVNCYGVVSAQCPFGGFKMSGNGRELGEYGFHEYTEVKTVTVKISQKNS
# HTT ATP protect: qHTS Multiplex Assay to Identify Dual Action Probes in a Cell Model of Huntington: Cytoprotection (ATP); 0.14% of 230,000 active; AID 1471, 2008; PC12 HTT-Q103 induced, cytoprotection, ATP luminescence, 40 h; Potency, µM (titrated, usually from 56.4 µM), without a hit: cytoprotection (ATP increase), hits mostly activators;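 further: % of control where 0% means no effect; nearly all actives have a fitted effect of over 45% in size; toxic huntingtin expression switched on by the ecdysone agonist tebufenozide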
#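 Rat PC12, Q103 Htt exon1-GFP fusion, ecdysone promoter; tebufenozide inducer 100 nM final; compound titration; qHTS, 1500 cells/well; ATPlite luminescent read.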
# Tau ThT inhib: qHTS for Inhibitors of Tau Fibril Formation, Thioflavin T Binding; Microtubule-associated protein tau (Homo sapiens), P10636; Potency, µM (top dose mostly 57.4 µM), without a hit: at the highest dose activity, negative = inhibition, usual class: inhibitors; recombinant tau K18 P301L, heparin-induced fibrillization, ThT fluorescence; 2.1% of 270,000 active; AID 1460, 2008; further: on the % scale 0 is the no-effect control and ±100 the full control effect; nearly all actives have a fitted effect of over 55% in size
#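 In this qHTS, human K18 P301L tau is incubated with compound and heparin for 6 hr at 37 C, and Thioflavin T fluorescence then reports fibril load.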
# SMN2 splice enh: qHTS Assay for Enhancers of SMN2 Splice Variant Expression; Potency, µM (series often up to 46.1 µM), for the others: at the highest dose activity change, positive = activation, actives largely listed as activators; 2.8% of 210,000 active; HEK293 SMN2-luciferase splicing reporter, luminescence, 30-36 h; further: % of control where 0% means no effect; nearly all actives have a fitted effect of over 55% in size
#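 HEK293 cells carry an SMN2 […]–luciferase reporter in which exon 7 inclusion puts luciferase in frame. Cells were plated 10-12 h before compound addition, then incubated 30-36 h at 37C. ONE-Glo luminescence was read; sodium butyrate at 4.5 mM final served as control.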
# Tau fluor cs: Counterscreen qHTS for Inhibitors of Tau Fibril Formation, Fluorescence Polarization | tau K18 P301L Alexa594 fluorescence, heparin fibrillization | Potency, µM (doses to about 57.7 µM), without a hit: at the highest dose activity change, negative = decrease | 0.93% of 280,000 active | AID 1463, 2008; further: on the % scale 0 is the no-effect control and ±100 the full control effect; nearly all actives have a fitted effect of over 55% in size
#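 Human tau K18 P301L (15 uM unlabeled, 0.24 uM Alexa 594-labeled) in 100 mM sodium acetate pH 7 with 20 uM heparin, 6 hr at 37 C. ThT 30 uM added, 1 hr ambient; Alexa 594 FP and total fluorescence read at 555/632 nm.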
# HTT aggregate: qHTS Multiplex Assay to Identify Dual Action Probes in a Cell Model of Huntington: Aggregate Formation (GFP) | PC12 HttQ103-GFP aggregates, Acumen cytometry, 40 h | Potency, µM (highest dose often 46.1 µM), inactives show at the top dose activity change, negative = inhibition, hits mostly inhibitors | 1.1% of 220,000 active; further: on the % scale 0 is the no-effect control and ±100 the full control effect; nearly all actives have a fitted effect of over 60% in size
#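 Huntingtin Q103 exon 1–GFP aggregates in induced PC12 cells (100 nM tebufenozide) were quantified by cytometry from lysates, with compounds dosed in titration.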
# Active calls of the source: *; ? = inconclusive; · = no result given; [ ] = remark or other dose. Unless noted, the call rests on the fitted dose curve; in most records, active means well fitted curve in the direction sought with a large enough effect; inconclusive means small, poorly fitted or top-dose-only effect, or another doubt; inactive means no such curve, though single readings can be large; an effect the other way counts as inactive or inconclusive. Potency means the concentration at half of the fitted maximal effect.
Structure	Tau FP inhib	ALDH1A1 block	HTT ATP protect	Tau ThT inhib	SMN2 splice enh	Tau fluor cs	HTT aggregate
COc1ccc(CCNC(=O)c2ccc3c(c2)OCCO3)cc1	-1%	-8%	·	?	?	-5%	8%
CC(C)CN1C(=O)/C(=C/c2ccco2)NC1=S	?	4µM*	·	?	14%	-19%	16%
CC(O)CNCCCOc1cccc(C(F)(F)F)c1 (configuration not stated)	8%	?	-35%[inhibitor]	7%	-3%	12%	2%[9.22 µM]
COC(=O)C1=C(C)Nc2nnnn2C1c1cccnc1 (configuration not stated)	2%	-7%	-2%[10 µM]	5%	-10%	0%	-10%
O=C(CNCc1ccncc1)Nc1cc(S(=O)(=O)N2CCCCC2)ccc1Cl	1%	?	-25%	-5%	-9%	0%	-6%
COc1ccc(CNc2nc(-c3cccnc3)nn2C(=O)c2ccco2)cc1	-10%	13%	-24%[0.074 µM]	?	·	-24%	14%
CN(C)CCOC(C1CCCCC1)C1CCCCC1	1%	2%	-5%	-8%	-3%	-3%	23%
Cc1cc2c(NC(=O)CC(C)(C)CC(=O)O)cccc2nn1	-7%	·	-8%[10 µM]	·	·	-21%	-28%[9.22 µM]
CCN(CC)S(=O)(=O)c1cc(C(=O)n2cccn2)c(Cl)cc1Cl	4%	-8%	9%[0.074 µM]	-2%	2%	5%	10%
CS/C(N)=N/C(=S)Nc1cccc(Cl)c1	-3%	·	29%[10 µM]	-13%	·	-20%	-1%[9.22 µM]
CCc1ccc(OCc2nnc(SCc3ccc(C(=O)O)cc3)o2)cc1	3%	-6%	4%[10 µM]	-1%	·	6%[2.34 µM]	-2%[9.22 µM]
Cc1ccc(NC2=CC(=O)CC(C)(C)C2)c(N)c1	-4%	-7%	-7%[10 µM]	0%	-20%	2%	10%
CCCCc1nc2ccccc2c(NC(=O)CN2CCN(C)CC2)c1CCC	-3%	?	-15%[10 µM]	-2%	12%	4%	14%
COCCSc1nnc(NC(=O)c2ccc(NC(=O)C(C)C)cc2)s1	0%	?	8%[10 µM]	-5%	·	-2%	-23%[9.22 µM]
CCC(C)NCCOc1ccc(C(C)(C)c2ccccc2)cc1 (configuration not stated)	10%	-6%	-24%	-16%	-59%[inhibitor]	1%	?
Cc1onc(-c2ccccc2)c1C(=O)N/N=C/c1cc2c(cc1Cl)OCO2	-5%	?	9%[10 µM]	-9%	-41%[inhibitor]	-18%	-9%
CC1CCN(C(=O)CSc2nnc(-c3ccc(S(=O)(=O)N4CCOCC4)cc3)n2C)CC1	0%	?	14%[10 µM]	2%	-21%	2%	-27%
Cc1ccc(OCc2nnc(SCC(=O)Nc3ccc4c(c3)OCCO4)n2Cc2ccco2)cc1	9%	?	-18%	-18%	-3%	?	14%
Cc1ccc(S(=O)(=O)N2CCOCC2)cc1NC(=O)CNC1CCCC1	-1%	-4%	7%[10 µM]	-4%	·	-5%	-5%[9.22 µM]
CC(C)NC(=S)NNc1nc2ccccc2s1	-11%	0.56µM*	6%	?	6%	-18%	14%

# Reformatted: entries from further up.
# Second line of a record – Tau FP inhib | ALDH1A1 block | HTT ATP protect | Tau ThT inhib | SMN2 splice enh | Tau fluor cs | HTT aggregate
CCN(CC)S(=O)(=O)c1cc(C(=O)n2cccn2)c(Cl)cc1Cl
    4% | -8% | 9%[0.074 µM] | -2% | 2% | 5% | 10%
CS/C(N)=N/C(=S)Nc1cccc(Cl)c1
    -3% | · | 29%[10 µM] | -13% | · | -20% | -1%[9.22 µM]
CCc1ccc(OCc2nnc(SCc3ccc(C(=O)O)cc3)o2)cc1
    3% | -6% | 4%[10 µM] | -1% | · | 6%[2.34 µM] | -2%[9.22 µM]
Cc1ccc(NC2=CC(=O)CC(C)(C)C2)c(N)c1
    -4% | -7% | -7%[10 µM] | 0% | -20% | 2% | 10%
CCCCc1nc2ccccc2c(NC(=O)CN2CCN(C)CC2)c1CCC
    -3% | ? | -15%[10 µM] | -2% | 12% | 4% | 14%
COCCSc1nnc(NC(=O)c2ccc(NC(=O)C(C)C)cc2)s1
    0% | ? | 8%[10 µM] | -5% | · | -2% | -23%[9.22 µM]
CCC(C)NCCOc1ccc(C(C)(C)c2ccccc2)cc1 (configuration not stated)
    10% | -6% | -24% | -16% | -59%[inhibitor] | 1% | ?

# 3 compounds already listed, sorted by the number in Tau ThT inhib, smallest number first:
Structure | Tau ThT inhib
Cc1ccc(OCc2nnc(SCC(=O)Nc3ccc4c(c3)OCCO4)n2Cc2ccco2)cc1 | -18%
Cc1ccc(S(=O)(=O)N2CCOCC2)cc1NC(=O)CNC1CCCC1 | -4%
COC(=O)C1=C(C)Nc2nnnn2C1c1cccnc1 (configuration not stated) | 5%

# These rows are one share of the data; the hit share may differ from the screen's.
